gsp antagonist: qHTS for Antagonists of gsp, the Etiologic Mutation Responsible for Fibrous Dysplasia/McCune-Albright Syndrome: qHTS; Potency, µM (titrated, usually from 76.9 µM), inactives show top-dose activity change, negative = inhibition, hits mostly inhibitors; gsp-mutant cells, cAMP HTRF, 30 min; control for the full effect not named in the record; 340,000 compounds, 0.4% hits; active = falling curve of any shape with a large fitted effect; inconclusive = falling curve, mostly with a smaller effect; inactive = flat or rising curve; cell line not stated here;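 note: intracellular cAMP measured with PDE inhibitor Ro 20-1724 present during compound exposure; potency is the fitted concentration of half-maximal effect; % is set by controls: 0 for no effect and ±100 for the full control effect; nearly all actives have a fitted effect of over 65% in size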
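Measurement of cellular cAMP by homogeneous time-resolved fluorescence following a 30 min compound exposure at 37C. The PDE inhibitor […] was present throughout; the assay buffer was DPBS with 0.05% BSA and 0.005% Tween 20.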
D2 potentiator: Beta-Arrestin HTS for Positive Allosteric Modulators of the Human D2 Dopamine Receptor: Potentiators; DiscoveRx D2 beta-arrestin cells, luminescence, 90 min; 100% = 57 uM dopamine signal; D(2) dopamine receptor (Homo sapiens), P14416; AID 624464, 2012; potentiation, % (concentration not given with the values); 360,000 compounds, 0.23% hits; active = potentiation of 50% or more; inconclusive = 30% to 50%; inactive = 30% or less;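 note: tested on top of an EC20 dose of dopamine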
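PathHunter beta-arrestin assay in DiscoveRx D2 cells. Compounds were added with an EC20 of dopamine (50 nM final) for 90 min at 37 deg C. Luminescence was read 1 h after detection reagent, with 57 uM dopamine as the EC100 control.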
gsp agonist: qHTS for Agonist of gsp, the Etiologic Mutation Responsible for Fibrous Dysplasia/McCune-Albright Syndrome: qHTS | AID 624287, 2012 | Potency, µM (doses to about 76.9 µM), without a hit: at the highest dose activation (cAMP increase), hits mostly activators | 340,000 compounds, 0.13% hits | gsp mutant cells, cAMP HTRF, 30 min; control for the full effect not named in the record; active = well fitted activation curve with a large enough effect; inconclusive = small, poorly fitted or top-dose-only effect, or another doubt; inactive = no such curve, though single readings can be large or run the other way; cell line not stated here;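 note: phosphodiesterase inhibitor Ro 20-1724 added with compounds to block cAMP breakdown; potency is the fitted concentration of half-maximal effect; nearly all actives have a fitted effect of over 60% in size; about a fifth of the inactives were tested at one dose only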
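Cells in DMEM/10% FBS with G418 were pretreated with compounds in DMSO plus […] (300 uM stock) for 30 min at 37C. cAMP was measured by HTRF (cAMP-d2 plus anti-cAMP antibody-K) after 30 min at room temperature.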
CtBP-E1A blk: qHTS Assay for Inhibitors of the CtBP/E1A Interaction. CtBP / adenovirus E1A interaction (AlphaScreen). AlphaScreen GST-E1A/His-CtBP binding, 1536-well; active compounds read low; control for the full effect not named in the record. activity change, % (test concentration not listed). 340,000 compounds, 0.49% hits; in the data active means activity change below about -65%; inconclusive means about -30% to -65%; inactive means above about -30%; note: % is set by controls: 0 for no effect and ±100 for the full control effect
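Homogeneous bead-based format: GST-tagged E1A captured on glutathione donor beads, His-tagged CtBP on nickel acceptor beads; compounds precede bead addition by 2 h at 37 °C.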
D2 agonist: Beta-Arrestin HTS for Positive Allosteric Modulators of the Human D2 Dopamine Receptor: Agonists; activation, % (no concentration beside the values); 360,000 compounds, 0.084% hits; DiscoveRx PathHunter D2 beta-arrestin, luminescence, 90 min; 100% = 57 uM dopamine signal; AID 624465, 2012; in the data active = activation above about 40%; inconclusive = about 15% to 40%; inactive = below about 15%; note: compound concentration not given in the record; the text of the record calls up to 30% inactive
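DiscoveRx PathHunter D2 beta-arrestin cells (2,100/well) attached overnight, then compound-stimulated 90 min at 37 C in HBSS/10 mM HEPES/0.1% Tween-20 buffer; beta-galactosidase complementation read by luminescence after 1 h at ambient temperature. Dopamine 57 uM final (EC100) as control.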
Six1-Eya2 inh: qHTS Assay for Inhibitors of the Six1/Eya2 Interaction; 360,000 compounds, 0.56% hits; Homeobox protein SIX1 (Homo sapiens) + Protein phosphatase EYA2 (Homo sapiens), …; AID 651725, 2012; AlphaScreen GST-Six1/His-Eya2 binding, biochemical; active compounds read low; control for the full effect not named in the record; activity change, % (no concentration beside the values); in the data active = activity change below about -65%; inconclusive = about -30% to -65%; inactive = above about -30%; note: % is set by controls: 0 for no effect and ±100 for the full control effect
Target sequence (O00167 whole entry, looked up): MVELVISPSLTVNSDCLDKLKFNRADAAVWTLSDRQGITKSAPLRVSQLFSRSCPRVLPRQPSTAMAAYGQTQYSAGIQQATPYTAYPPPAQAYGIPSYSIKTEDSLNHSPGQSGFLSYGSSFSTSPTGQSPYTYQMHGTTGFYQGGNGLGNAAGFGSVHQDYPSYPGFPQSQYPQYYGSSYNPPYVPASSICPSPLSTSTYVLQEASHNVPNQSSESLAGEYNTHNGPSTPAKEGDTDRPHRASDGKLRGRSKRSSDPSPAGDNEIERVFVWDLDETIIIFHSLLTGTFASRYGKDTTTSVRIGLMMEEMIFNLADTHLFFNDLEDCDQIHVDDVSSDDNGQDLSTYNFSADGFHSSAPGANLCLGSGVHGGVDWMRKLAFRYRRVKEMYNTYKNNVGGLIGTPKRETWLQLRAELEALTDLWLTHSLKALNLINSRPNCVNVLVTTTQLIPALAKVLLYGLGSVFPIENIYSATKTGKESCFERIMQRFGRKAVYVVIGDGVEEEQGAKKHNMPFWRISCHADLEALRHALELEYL
Target sequence (Q15475 whole entry, looked up): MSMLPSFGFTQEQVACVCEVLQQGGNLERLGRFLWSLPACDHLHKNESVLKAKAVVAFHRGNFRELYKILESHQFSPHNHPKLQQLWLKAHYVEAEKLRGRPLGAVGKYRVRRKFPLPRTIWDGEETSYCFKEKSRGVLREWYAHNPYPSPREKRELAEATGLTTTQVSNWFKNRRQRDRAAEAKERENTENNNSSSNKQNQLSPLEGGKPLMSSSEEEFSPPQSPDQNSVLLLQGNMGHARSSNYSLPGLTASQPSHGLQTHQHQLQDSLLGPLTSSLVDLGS
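Compounds are tested against tagged Six1 and Eya2 proteins bridged by glutathione donor and nickel acceptor beads; after a one-hour incubation at 37 °C without light, AlphaScreen emission is recorded.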
* = called active by the depositor; ? = inconclusive; · = not tested or not shown; [ ] = remark or other dose.

Start of the listing, in advance (4 entries):
SMILES | gsp antagonist | D2 potentiator | gsp agonist | CtBP-E1A blk | D2 agonist | Six1-Eya2 inh
Clc1ccc(Oc2nc(N3CCOCC3)nc(N3CCOCC3)n2)cc1 | 2.3% | -26.3 | -16.7% | 6.1 | -1.9 | -7.7
COc1ccc(N=Nc2nc3cc(Br)c(Br)cc3n2C)c(OC)c1 | -7.4% | -11.1 | -5.7%[15.4 µM] | 9.7 | -0.8 | ?
CC(Sc1ccccc1)C(=O)NCCc1ccccc1 (centres undefined) | 2.8% | 0.9 | -20.6% | · | -0.5 | -1.4
Cc1c(-c2ccccc2)[n+](=O)c2c(n1[O-])CCCC2 | 10.4% | -2.7 | -20.7%[15.4 µM] | -26.8 | -1.4 | 10.3

All compounds of this part, from the start:
SMILES | gsp antagonist | D2 potentiator | gsp agonist | CtBP-E1A blk | D2 agonist | Six1-Eya2 inh
Clc1ccc(Oc2nc(N3CCOCC3)nc(N3CCOCC3)n2)cc1 | 2.3% | -26.3 | -16.7% | 6.1 | -1.9 | -7.7
COc1ccc(N=Nc2nc3cc(Br)c(Br)cc3n2C)c(OC)c1 | -7.4% | -11.1 | -5.7%[15.4 µM] | 9.7 | -0.8 | ?
CC(Sc1ccccc1)C(=O)NCCc1ccccc1 (centres undefined) | 2.8% | 0.9 | -20.6% | · | -0.5 | -1.4
Cc1c(-c2ccccc2)[n+](=O)c2c(n1[O-])CCCC2 | 10.4% | -2.7 | -20.7%[15.4 µM] | -26.8 | -1.4 | 10.3
O=C(Cc1ccc(Cl)cc1)Nc1ccccc1C(=O)N1CCCCC1 | 11.8% | 7.2 | -22.4% | 6.5 | -5.2 | 0.2
CCCCN1C[C@H](CSC)[C@@H](CC(=O)NC)C1=O | · | 3.9 | ? | 2.1 | -3.7 | -1.0
CCOC(=O)Cc1csc(SCC(=O)NC2CCS(=O)(=O)C2)n1 (centres undefined) | 13.7% | 1.2 | 20.1% | 5.3 | 0.0 | 5.8
Cc1ccc([C@H]2N[C@]3(CCCN(Cc4ccc(F)cc4)C3=O)[C@H]3C(=O)N(Cc4ccccc4)C(=O)[C@@H]23)cc1 | · | 5.0 | -0.1% | 0.6 | -8.1 | -2.6
CCOc1ccc(-c2c(C(=O)N/N=C/c3ccsc3)nnn2-c2nonc2N)cc1 | -9.7% | 3.3 | 0.9% | 1.4 | -11.3 | -0.3
NC(N)=N/N=C(\N=Nc1ccccc1)c1cccc2cccnc12 | -0.9% | -19.6 | 0.6% | 12.6 | -5.2 | -15.7
COc1cccc(-c2cc(-c3cccnc3)c(C#N)c(N)n2)c1 | -29.4% | 4.8 | 22.8% | -2.2 | -1.7 | -21.8
Cc1ccccc1SCC(=O)OCC(=O)Nc1ccc(N(C)C)cc1 | -21.5% | -5.9 | 16.7% | -2.0 | 4.9 | -25.1
CCOC(=O)CN1C(=O)N[C@@H](CCc2ccccc2)[C@@H](C(=O)OC)[C@H]1C | -1.7% | -9.3 | · | -20.9 | 1.8 | -4.1
CCc1ccc(NC(=S)N2CCCC(C(F)(F)F)C2)cc1 (centres undefined) | 7.1% | -8.0 | 22.4% | -4.7 | -6.1 | -10.1
Cc1cccc(OCC(=O)Nc2ccc(S(=O)(=O)N3CCN(C)CC3)cc2)c1 | 13.8% | 1.2 | 11.4% | -2.9 | -1.3 | -2.7
O=C(NCCCN1CCc2ccccc2C1)C1CCN(S(=O)(=O)N2CCCC2)CC1 | 12.8% | -23.8 | -14.3% | 2.4 | -1.3 | 1.3
Cc1ccc(-c2cc3nc(C)cc(N4CCN(C(=O)c5ccoc5)CC4)n3n2)cc1 | · | 5.6 | -48.7%[inhibitor] | 4.9 | -1.7 | 7.9
COC(=O)c1cc(NC(=O)c2cccs2)ccc1N1CCOCC1 | 14.3% | 7.5 | -13.8%[15.4 µM] | 5.9 | -12.1 | 1.2
CN(C)c1cc(Nc2ccc(O)cc2)c([N+](=O)[O-])c2nonc12 | -2.9% | -3.8 | 24.0% | 0.4 | -6.8 | -1.7
CSc1ccc(/C=N/n2c(C3CCCCC3)n[nH]c2=S)cc1 | -21.8% | -6.3 | -7.2% | -9.2 | -7.3 | -9.7
CN(C)C(=O)c1c2c(nc3ccccc13)CCCC2 | 4.3% | -8.0 | -4.8%[15.4 µM] | 9.5 | -2.4 | -14.8
CC(=O)N1CCC(O)(c2cccc(C(F)(F)F)c2)CC1 | 10.3% | -3.4 | -4.6% | 36.1 | -0.6 | 1.2
Cc1ccc(NC(=O)NC2CCCCC2)cc1Cl | 2.1% | -13.1 | 5.9% | 5.1 | 1.4 | 3.1
C[C@H]1CN[C@H](CCO)/C1=C\c1ccccc1 | 16.6% | · | · | 0.9 | 9.0 | 8.0
O=C(Nc1ccc(S(=O)(=O)N2CCOCC2)cc1)C1CC1 | 13.0% | -2.1 | 0.2% | 5.1 | 3.7 | -4.5
Cc1ccc(CN(C)CC(=O)NC(C)c2ccccc2)cc1 (centres undefined) | 5.9% | -11.5 | ? | 6.5 | -8.3 | -3.0
CC(=O)OC1CCC2C3CCC4=C(CC(F)C(=O)C4)C3CCC12C (centres undefined) | 5.2% | 2.6 | 11.5%[15.4 µM] | -3.5 | 2.2 | -9.0
CC1CCCN(S(=O)(=O)c2ccc3c(c2)c(=O)nc2ccccn23)C1 (centres undefined) | 9.3% | 2.0 | 22.1%[15.4 µM] | -14.9 | 1.4 | -20.2
Nc1cc(=O)n(Cc2ccccc2)c(=O)n1-c1ccc(Cl)cc1 | 1.5% | -4.9 | -4.9%[15.4 µM] | 5.0 | 1.1 | -1.1
COc1cc(OC)c(C=Cc2ccncn2)c(OC)c1 | · | -9.3 | 2.3% | 4.8 | -1.1 | -5.3
CC(=NC1CCCC1)c1c(C)[nH]n(-c2nc3ccccc3s2)c1=O | -11.1% | -5.2 | 1.9% | -7.4 | -3.8 | -3.7
COc1ccccc1-c1c(C)nn2c(N3CCC4(CC3)OCCO4)cc(C)nc12 | -9.5% | -2.0 | -11.1% | -1.8 | 0.7 | 2.0
COc1ccc(C(=O)Nc2ccc(S(=O)(=O)N3CCCC3)cc2)cc1 | -0.8% | -5.6 | -21.8%[15.4 µM] | -21.1 | 1.1 | -9.4
O=S(=O)(NCc1ccccc1)c1ccccc1NCCc1ccccc1 | -5.7% | · | · | 14.9 | -1.0 | 17.7
Cc1onc(-c2ccccc2)c1C(=O)N1CCCC(C)(C(=O)NS(=O)(=O)C2CC2)C1 (centres undefined) | · | -11.1 | · | -0.8 | -3.6 | 1.9
COC(=O)c1c(NC(=O)c2c(Cl)cnn2C)sc(C)c1C | -9.6% | -6.1 | 19.9% | · | 0.2 | -4.8
CCOc1ccc(S(=O)(=O)Nc2ccn(C)n2)cc1 | -0.3% | 2.8 | -1.3% | · | -1.6 | 3.7
CCOc1ccc(-c2ccc(NS(=O)(=O)c3ccc([N+](=O)[O-])cc3)cc2)nn1 | ? | 2.3 | -34.5%[inhibitor] | -0.7 | 8.2 | 0.1
COc1ccc(S(=O)(=O)N2CCCCCC2)cc1C(=O)N(C)Cc1ccc(OC)c(OC)c1OC | -20.3% | -9.8 | -21.5% | 3.7 | -4.2 | 0.4
Cc1c(C(=O)NC2CCCc3ccccc32)oc2ccc(S(=O)(=O)N3CCCC3)cc12 (centres undefined) | 9.5% | 0.6 | -27.2% | 1.0 | -1.0 | 0.2
CCC(=O)Oc1ccc(C(=O)Nc2ccccc2C(=O)NCC(C)C)cc1 | -13.8% | -5.7 | -35.5%[inhibitor] | · | -1.4 | -1.3
COc1cccc(CN2CCNC(=O)C2CC(=O)N(C)CC2CCOCC2)c1OC (centres undefined) | 5.1% | 0.4 | -21.8% | 10.2 | -0.6 | 2.4
O=C(NC1CCCC1)C(c1ccc(N2CCOCC2)cc1)N(C(=O)c1ccco1)c1ccccc1F (centres undefined) | 9.7% | -6.9 | 8.7%[15.4 µM] | 1.1 | -6.1 | 5.4
COc1ccc(/C=C2\CCc3ccccc3C2=O)cc1OC | -15.4% | -11.3 | -33.9%[inhibitor] | -21.4 | -0.9 | -12.1
COc1ccc(NC(=O)CCCNC(=O)Cn2cnc3sc(C)c(C)c3c2=O)cc1Cl | -18.6% | -0.2 | -42.9%[15.4 µM] | -8.0 | -0.4 | -9.3
Cc1ccc2[nH]c(=O)c(CN(CC3CCCO3)C(=O)c3ccncc3)cc2c1 (centres undefined) | -2.8% | -17.3 | 4.6% | -2.2 | 0.6 | 18.6
C[C@@H]1CN([C@@H](C)CO)C(=O)c2cc(Br)cnc2O[C@H]1CN(C)C(=O)CCN1CCCCC1 | · | 5.0 | -26.3% | -5.2 | -4.8 | 3.6
O=C(COC(=O)c1cc(S(=O)(=O)N2CCOCC2)ccc1O)NCCc1ccccc1 | -41.5% | -20.7 | -25.0% | 2.0 | -5.4 | 0.1
Cc1ccsc1C(=O)OCC(=O)NC1CCCC1 | 2.8% | -0.3 | ? | 4.1 | -0.1 | 1.0
CCCC(C)C(=O)Nc1cc([N+](=O)[O-])ccc1Cl (centres undefined) | -0.2% | -5.9 | ? | 0.4 | 0.3 | 4.8
CSc1ccc(/C=N/NC(=O)c2ccccc2Cl)cc1 | 1.1% | -28.2 | -0.2%[15.4 µM] | -6.4 | -0.3 | -12.4
C=CCn1c(-c2cccc3ccccc23)n[nH]c1=S | -4.1% | -4.6 | 16.7% | -4.1 | 1.6 | 5.2
CCCC1(CCC)NC(=O)NC1=O | 4.7% | -10.5 | -18.4% | -0.3 | -0.7 | -4.4
O=C(COC(=O)CCCc1nc2ccccc2s1)Nc1ncc(Cl)cc1Cl | -1.1% | 3.3 | 21.0%[15.4 µM] | 0.3 | -5.2 | 0.8
Cc1ccccc1NCCC(=O)Nc1ccc(F)cc1 | 12.4% | -2.3 | 16.2% | 1.6 | -0.8 | 8.1
Cc1cc(OCC(O)CN2CCOCC2)cc(C)c1Cl (centres undefined) | 6.5% | -7.8 | 3.6%[15.4 µM] | -1.3 | 0.1 | 1.1
COc1ccc(/C=N/OCC(=O)N2CC3(C)CC2CC(C)(C)C3)cc1 (centres undefined) | 4.8% | 0.1 | -22.7% | 8.1 | -1.0 | -0.4
COc1ccc(C(=O)C2CCCN(Cc3ccc(Sc4nncn4C)o3)C2)cc1F (centres undefined) | -3.6% | -5.4 | -33.6%[inhibitor] | 0.8 | 1.4 | -11.3
C/C(=N\NC(=O)CNc1ccc(F)cc1)c1cc2ccccc2o1 | -2.1% | -9.7 | 7.5%[15.4 µM] | 4.3 | 0.5 | -9.8
